Assay outcomes (PubChem BioAssay)
PABP FP inh: blocks human PABP binding to poly(A) RNA | inhibition, % at 35 µM | hit rate 1% among 290,000 | fluorescence polarization | P11940;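 active means 50% or more with normal probe brightness, or confirmed in later tests; inconclusive means above 50% with abnormal brightness, or retests that disagree; inactive means below 50% or failed in later tests; about a fifth of its hits are not listed in these tables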;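 further: calls also rest on retests at 20 µM and on dose response follow-up; controls were probe without protein and protein plus probe with vehicle; some compounds called inactive have numbers as strong as hits; many hits fall short of the cut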
Target sequence (P11940 whole entry, looked up): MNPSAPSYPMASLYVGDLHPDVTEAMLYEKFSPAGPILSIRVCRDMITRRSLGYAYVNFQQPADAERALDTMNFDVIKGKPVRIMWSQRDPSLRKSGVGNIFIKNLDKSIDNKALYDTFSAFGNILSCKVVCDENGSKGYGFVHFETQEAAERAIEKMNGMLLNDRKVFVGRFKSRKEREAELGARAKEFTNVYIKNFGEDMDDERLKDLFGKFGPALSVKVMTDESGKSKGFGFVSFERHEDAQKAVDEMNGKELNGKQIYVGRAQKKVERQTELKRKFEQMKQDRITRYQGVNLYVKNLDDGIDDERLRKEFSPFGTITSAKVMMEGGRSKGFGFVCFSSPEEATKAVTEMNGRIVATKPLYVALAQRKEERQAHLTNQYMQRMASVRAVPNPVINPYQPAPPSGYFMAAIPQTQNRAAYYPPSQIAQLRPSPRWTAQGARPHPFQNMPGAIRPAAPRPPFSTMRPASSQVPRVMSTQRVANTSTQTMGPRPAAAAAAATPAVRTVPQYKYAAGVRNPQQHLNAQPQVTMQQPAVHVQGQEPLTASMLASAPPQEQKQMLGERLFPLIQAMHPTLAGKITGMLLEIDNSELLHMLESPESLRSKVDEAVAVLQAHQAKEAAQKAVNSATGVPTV
MT1-MMP act inh: MT1-MMP (human) activation inhibition | P50281 | HT1080 RFP-PRO-GFP cells, GFP/RFP ratio fluorescence, overnight; percent of plate control window, DMSO zero | GFP/RFP ratio change, % at 20 µM | hit rate 0.061% among 360,000 | AID 651647;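 active means GFP/RFP ratio change of at least 30% with cell ATP level not reduced by more than half and red fluorescence within 50% of control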; further: strong numbers were not always called active
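Test system: HT1080 RFP-PRO-GFP cells; Benchmarks: DMSO and RFP-L50D-GFP cell wells; Timing: cells overnight before dosing, compound overnight, 37 °C, 5% CO2; Compound: one 20 µM compound dose with 1% DMSO; Read-out: GFP/RFP fluorescence ratio.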
Yeast UUG start: yeast start codon fidelity modulation | activity score, % at 18.7 µM | AID 602363 | hit rate 0.13% among 350,000 | S. cerevisiae UUG-firefly luciferase reporter, luminescence/redox ratio;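 active means replicate mean at a twofold rise or more, about +100% in these data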;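 further: firefly luciferase made from a UUG start codon reports start codon fidelity; reporter light over untreated wells divided by growth signal over untreated wells; some hits fall short of that in this replicate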
CSC inhib: blocks cancer stem cells. inhibition, % at 7.5 µM. hit rate 1.1% among 300,000. cancer stem cell-like cells viability, luminescence;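 active means mean at 75% or more and at least half the replicates too; inconclusive means mean and replicates disagree; tested in HMLE shEcad cells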;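 further: 0% = median of negative and 100% = median of positive control wells; the first replicate is given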
Rce1 inh: inhibitors of yeast Ras-converting enzyme; yeast membranes, quenched prenylated peptide cleavage fluorescence; calls only; hit rate 0.27% among 290,000;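 active means fall in fluorescence gain of 50% or more versus controls, with final raw signal at or below 3038400; inconclusive means same 50% fall but final raw signal above 3038400; inactive means fall in fluorescence gain under 50%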;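 further: plate controls were neutral control wells for no effect and wells lacking membranes for full effect; tested at 10 µM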
Env fusion inh: inhibitors of HIV Env-mediated cell fusion | HeLa-JRFL Env/CEM21 cell fusion, luciferase | inhibition, % at 12.3 µM | hit rate 1.1% among 360,000;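 active means mean replicate inhibition score of at least 50 and every replicate individually at or above 50; inconclusive means only one of the two criteria met; inactive means mean below 50 and not all replicates reaching 50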;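 further: 0% = plate neutral controls and 100% = maraviroc near 300 nM; one replicate is shown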
eIF4H FP inh: inhibitors of RNA binding by human eIF4H. Q15056. eIF4H fluorescence polarization binding assay. inhibition, % at 35 µM. hit rate 0.94% among 290,000. AID 2012;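 active means 50% or more with normal probe brightness, or confirmed in later tests; inconclusive means above 50% with abnormal brightness, or retests that disagree; inactive means below 50% or failed in later tests; about a fifth of its hits are not listed in these tables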;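 further: calls also rest on retests at 20 µM and on dose response follow-up; 0% = protein and probe with vehicle and 100% = probe without protein; strong numbers were not always called active; many hits fall short of the cut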
eIF4H FP inh retest: further read-out of eIF4H FP inh, marked with its call; inhibition, %; compound at 20 µM; confirmation average;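 mean of two retest wells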
PABP FP inh retest: further read-out of PABP FP inh, marked with its call; inhibition, %; compound at 20 µM; confirmation repeats;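 mean of two retest wells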
MT1-MMP act inh RFP: also measured in MT1-MMP act inh; calls as there; RFP signal change, %; measured here: RFP expression control read;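 0 = vehicle wells; hits needed this value within 50% of zero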
Numbers without * were called inactive; i = inactive; ? = inconclusive; · = no result given. Only part of the results is shown, so the mix of outcomes need not match the whole.

SMILES | PABP FP inh | MT1-MMP act inh | MT1-MMP act inh RFP | Yeast UUG start | CSC inhib | Rce1 inh | Env fusion inh | eIF4H FP inh | others
CCOC(=O)c1cn(CC)c2cc3c(cc2c1=O)OCO3 | · | 4 | 5 | 1 | -11 | i | -17 | ·
CC1CCC(NC(=O)CN2C(=O)NC3(CCCCC3C)C2=O)CC1 (centres undefined) | · | -5 | 0 | · | -15 | · | -34 | ·
CC(C)C(=O)Nc1nnc(SCC(=O)NCc2ccco2)s1 | 3 | 6 | 13 | · | -1 | i | · | 2
Cc1cccc(C)c1NC(=O)N1C(C(=O)O)CSC1C(=O)O (centres undefined) | 6 | 0 | 3 | -14 | -14 | i | -22 | 3
COc1ccc(CNC(c2ccccc2)c2ccc(Cl)cc2)cc1 (centres undefined) | -1 | -3 | -2 | 2 | 8 | · | 1 | 4
COc1ccc(CSc2nnc(-c3ccncc3)n2N)cc1 | -15 | 2 | 1 | · | -6 | i | 6 | 3
CCCCn1c(N)c(N(CCC(C)C)C(=O)CC2CCCC2)c(=O)[nH]c1=O | · | -8 | -5 | · | 2 | i | 2 | ·
COC(=O)C1C(c2ccc(N(C)C)cc2)C(C(=O)OC)S(=O)(=O)CS1(=O)=O (centres undefined) | -22 | -2 | 5 | · | 0 | i | 18 | -3
CN(C1CCCC1)C1CCN(C(=S)Nc2cc(F)cc(F)c2)CC1 | -3 | 0 | 6 | -13 | 20 | i | 3 | -8
O=C(c1ccc(OC2CCN(CCc3ccccc3)CC2)cc1)N1CCC(CO)CC1 | -3 | 0 | 4 | -14 | -1 | i | -11 | -3
O=C(/C=C/Nc1ccccc1C(F)(F)F)c1ccco1 | 0 | -3 | -2 | -2 | -11 | i | -140 | 0
O=C(/C(=N\Nc1ccccc1)Sc1nnnn1-c1ccccc1)c1ccccc1 | 11 | 7 | 2 | -15 | -5 | i | -13 | -13
CCN(CC)C(=O)C1=C(C)N(Cc2ccccc2)C(=O)C(CC(=O)NCCc2ccccn2)C1 (centres undefined) | · | 0 | -2 | -14 | · | · | 0 | ·
COCCOc1cc(N2C(=O)CSCC2=O)c(Cl)cc1Cl | -7 | 3 | 0 | -19 | 10 | i | · | -11
Cc1ccc(NC(=O)C2c3ccccc3-c3ccccc32)cc1 | · | -1 | -2 | -24 | · | · | 5 | ·
CCN(CCCNC(=O)c1c(C)cc(=O)oc1C)c1cccc(C)c1 | 4 | -2 | 0 | -10 | -10 | · | 29 | 1
COc1ccccc1-n1c(=O)c2c3c(sc2n2c(SC(C)C)nnc12)CCC3 | -1 | 0 | 2 | 6 | -20 | i | · | 0
COc1cc(/C=N/NC(=O)c2ccc(COc3ccccc3Cl)o2)cc(Br)c1O | 8 | 7 | 2 | · | -11 | i | · | -8
CCOc1ccc(CNC(=O)c2cccc(NC(=O)C3=C(C)OCCS3)c2)cc1 | -7 | 3 | 1 | -3 | -6 | i | 5 | 4
O=C(NCCc1nnc2ccc(NCCCN3CCOCC3)nn12)c1ccccc1 | -12 | 0 | 3 | -8 | 11 | i | 12 | 2
CC(=O)Nc1ccc(S(=O)(=O)N2CCCC(C(=O)O)C2)cc1 (centres undefined) | 3 | 3 | 9 | · | 4 | i | 6 | -4
CC1C/C(=N/NC(=O)c2cccc(F)c2)c2ccc(O)cc2C1 (centres undefined) | -3 | 11 | 3 | · | · | i | -33 | 0
COc1ccc(S(=O)(=O)N2CCN(CC(O)COc3ccc(C#N)cc3)CC2)cc1OC (centres undefined) | -3 | 0 | 1 | -6 | 0 | i | 4 | -5
O=C(CN1C(=O)NC(CCc2ccccc2)C1=O)NC1CC1 (centres undefined) | -2 | -4 | 3 | · | -10 | i | 5 | 3
O=C(C[n+]1cccc(/C=N/O)c1)N1CCCCCC1 | -2 | 1 | 9 | · | -6 | i | -3 | 7

Sorted by molar mass (rising): some entries from above
SMILES | PABP FP inh | MT1-MMP act inh | MT1-MMP act inh RFP | Yeast UUG start | CSC inhib | Rce1 inh | Env fusion inh | eIF4H FP inh | others
COc1ccc(CSc2nnc(-c3ccncc3)n2N)cc1 | -15 | 2 | 1 | · | -6 | i | 6 | 3
Cc1cccc(C)c1NC(=O)N1C(C(=O)O)CSC1C(=O)O (centres undefined) | 6 | 0 | 3 | -14 | -14 | i | -22 | 3
CCOc1ccc(CNC(=O)c2cccc(NC(=O)C3=C(C)OCCS3)c2)cc1 | -7 | 3 | 1 | -3 | -6 | i | 5 | 4

Remaining list, next part.
SMILES | PABP FP inh | MT1-MMP act inh | MT1-MMP act inh RFP | Yeast UUG start | CSC inhib | Rce1 inh | Env fusion inh | eIF4H FP inh | others
CNCCCC1c2ccccc2C=Cc2ccccc21 | -2 | -6 | -1 | -5 | 2 | i | · | -12
C/C(=N/NC(=O)C1CC1(c1ccccc1)c1ccccc1)c1ccco1 (centres undefined) | 7 | -5 | -5 | 1 | -16 | i | 34 | 1
CCCOP(=O)(c1ccccc1)c1ccccc1 | -4 | -1 | 0 | -13 | -22 | i | · | -5
Cc1cc(NC(=O)C(Cl)c2ccccc2)no1 (centres undefined) | 1 | 6 | 2 | -22 | -11 | i | -11 | -12
O=C(NCCS(=O)(=O)N1CCN(c2ccc(F)cc2)CC1)c1ccco1 | · | 1 | 2 | · | 11 | i | · | ·
Cc1ccccc1C(=O)NNC(=O)CN1C(=O)c2ccccc2C1=O | -5 | -2 | 1 | · | · | i | 34 | -1
COc1cc(CC(NC(C)=O)C(=O)NC2CCN(C(=O)c3ccc(C)cc3)CC2)cc(OC)c1 (centres undefined) | -2 | 2 | 0 | -6 | -12 | i | -24 | 7
Cc1nc2c(OCc3ccc(C#N)cc3)cccn2c1N(C)C(=O)CCC1CCCC1 | · | 2 | -13 | -15 | · | · | 47 | ·
CCc1nnc(NC(=O)CCC(=O)Nc2ccc(Cl)cc2)s1 | 3 | -1 | 0 | · | -3 | i | -2 | -14
O=S(=O)(Nc1ccccc1)c1ccc(Oc2ncc(C(F)(F)F)cc2Cl)cc1 | -8 | -11 | -10 | -4 | 55 | i | 14 | -10
CCOC(=O)C1=CN(Cc2cccc(F)c2)S(=O)(=O)N(C)C1c1ccc(F)c(Cl)c1 (centres undefined) | · | -7 | -19 | -18 | · | · | 23 | ·
CCCn1nnc(NC(=O)c2ccco2)n1 | 0 | -1 | 1 | -14 | 6 | i | · | -4
Nc1c(C(=O)Nc2ccccc2)c2nc3ccccc3nc2n1-c1ccc(O)cc1 | 12 | -3 | -5 | -14 | 46 | i | -5 | 18
Cc1ccc2c(c1)sc1ncc(NC(=O)c3ccc(F)cc3)c(=O)n12 | 4 | · | · | · | 5 | i | · | 5
Cc1cc(C)n(CCSCC(=O)O)n1 | 7 | 0 | 5 | -21 | -9 | i | · | -12
O=C(Nc1ccccc1Br)C1CCN(S(=O)(=O)c2cccs2)CC1 | · | 3 | -3 | 4 | -10 | · | -25 | ·
COc1ccc(-c2[nH]ncc2CNCC(C)(C)N2CCOCC2)cc1F | -4 | 8 | 3 | -18 | -18 | i | 14 | 3
CC(C)(C)c1ccc(S(=O)(=O)N2CCSC2)cc1 | 2 | -1 | -4 | 1 | -22 | i | 15 | -4
CCN(CC)S(=O)(=O)c1cc(C(=O)N=c2sccn2C)ccc1OC | 8 | -3 | -1 | -8 | -12 | i | -4 | 2
COc1ccc(OC)c(NC(=O)c2nc(S(=O)(=O)Cc3ccccc3)ncc2Cl)c1 | 35 | -1 | 2 | -16 | 106* | i | ? | -3
COc1ccc(C(=O)NC(=S)NNC(=O)c2ccc(NC(=O)C(C)C)cc2)cc1 | -3 | 6 | 2 | · | 12 | i | 20 | 11
CC(=O)c1ccc(OCC(=O)NC(=O)NC2CCCCC2)cc1 | 8 | 3 | -4 | 0 | 2 | i | · | -16
O=C(NCc1nnc(SCc2ccccc2)n1-c1ccc(F)cc1)C12CC3CC(CC(C3)C1)C2 | -18 | -3 | -8 | -12 | -13 | i | 23 | -6
CCC(NC(=O)Nc1ccc(O)cc1)(C(F)(F)F)C(F)(F)F | -5 | 5 | 2 | -3 | -9 | · | · | -2
Cc1cc(=O)oc2cc(OCC(=O)N3CCc4ccccc4C3)ccc12 | 57 | -1 | 2 | · | -7 | i | · | 3 | eIF4H FP inh retest=-4;PABP FP inh retest=9
SMILES | PABP FP inh | MT1-MMP act inh | MT1-MMP act inh RFP | Yeast UUG start | CSC inhib | Rce1 inh | Env fusion inh | eIF4H FP inh | others
COc1ccc(C(C)=O)cc1CSc1nc2cc(C(=O)O)ccc2c(=O)n1Cc1ccccc1 | 8 | 9 | -8 | · | 40 | i | 0 | 1
C=C(C(=O)O)C(CCCCCC)C(=O)O (centres undefined) | 24 | 2 | 5 | -6 | -5 | i | · | 15
COc1ccccc1C(=O)Nc1nnc(SCC(=O)Nc2ccc3c(c2)oc2ccccc23)s1 | -8 | 2 | 1 | -15 | 13 | i | -272 | -13
CCN(CC)N=Nc1ccc(S(N)(=O)=O)cc1 | 1 | 4 | 3 | · | -5 | i | 14 | -1
CN(C)c1ccc(CNC(=O)CC[C@H]2O[C@@H](n3cnc4c(NC(=O)c5ccccc5)ncnc43)[C@H](O)[C@@H]2O)cc1 | · | 3 | 3 | 0 | · | · | 14 | ·
COc1ccc(-n2c(C)c(C)c3c(NCCCN(C)C)ncnc32)cc1 | 13 | 1 | -1 | -16 | 6 | i | 4 | -4
CCC(C)[C@H](NC(=O)CCn1nnc2ccccc2c1=O)C(=O)O (some centres undefined) | 5 | -5 | 0 | -8 | 3 | i | 6 | 5
Cc1nc(C(F)(F)F)ccc1C(=O)N1CCC1(C)C(=O)NS(=O)(=O)c1ccccc1Cl (centres undefined) | · | 10 | 5 | -21 | · | · | 2 | ·
Cc1ccccc1-n1ncc2c1CC(C)(C)CC2NC(=O)CN1CCCC1=O (centres undefined) | 26 | 2 | 0 | -15 | 2 | i | 5 | -6
CC(C)NC(=O)C1CCN(c2ccc(S(=O)(=O)N3CCOCC3)cc2Cl)CC1 | -1 | 2 | -4 | -3 | 7 | i | 23 | 3
N=c1n(CC(=O)c2ccc(Br)cc2)c2ccccc2n1Cc1ccccc1 | · | 5 | -1 | -3 | 33 | · | -7 | ·
CC1CCCC(C)N1C(=O)COC(=O)c1ccc2c(c1)OCO2 (centres undefined) | -1 | -4 | -4 | 19 | -22 | i | · | -9
COCCN(C(=O)Cc1coc2cc(C)c(C)cc12)c1c(N)n(Cc2ccccc2)c(=O)[nH]c1=O | · | 0 | -2 | 14 | -5 | i | 27 | ·
CC(C)C[C@H]1C(=O)N2CCC[C@H]2[C@]2(O)O[C@](NC(=O)C3C=C4c5cccc6[nH]c(Br)c(c56)C[C@H]4N(C)C3)(C(C)C)C(=O)N12 (some centres undefined) | · | -11 | -7 | -20 | 2 | i | ? | ·
COc1cccc(C2=CC(c3ccc(OC)c(OC)c3)NC(=S)N2)c1 (centres undefined) | -10 | · | · | · | -4 | i | -124 | -11
COc1ccccc1C(=O)COC(=O)C(NC(=O)Cc1ccccc1)C(C)C (centres undefined) | · | 3 | 2 | 2 | -11 | · | · | ·
CN(C)C(=O)c1nc2ccc(Cl)cn2c1CNCc1ccccc1OC(F)(F)F | 2 | -4 | -2 | -6 | -4 | i | -4 | 8
O=C(NC(Nc1nc2ccc([N+](=O)[O-])cc2s1)(C(F)(F)F)C(F)(F)F)c1cccnc1 | -8 | -5 | -36 | · | 70 | i | 123* | 5
COc1ccc(C2=CC(=O)C[C@H](COCc3ccccc3)N(C(=O)OC(C)(C)C)O2)cc1 | · | -4 | -14 | -13 | · | · | 0 | ·
